Screening data (PubChem)
PINK1 expr mod: modulators of PINK1 expression; AID 624263; PINK1 immunofluorescence, high-content cytometry, 24 h; actives 0.2% (n = 410,000); Potency, µM (titrated, usually from 76.6 µM), for the others: top-dose activation (PINK1 increase), most hits filed as activators; active = well fitted activation curve with a large enough effect; inconclusive = small, poorly fitted or top-dose-only effect; inactive = flat fitted curve, though single readings scatter; cell line not stated here;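 note: potency is the fitted concentration of half-maximal effect; % of control where 0% means no effect; nearly all actives have a fitted effect of over 65% in size; a mitochondrial uncoupler was the plate control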
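Decision-based qHTS: stable cells, 24 h exposure to five compound concentrations, CCCP as control. Fixed cells stained for PINK1 plus nuclear, mitochondrial and cell markers, cytometer read.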
Sfp PPTase inh: blocks B. subtilis Sfp PPTase activity. Q9F4F7. Biochemical Sfp PPTase activity, qHTS. Potency, µM, without a hit: max response, negative = inhibition, actives largely listed as inhibitors. actives 3.5% (n = 310,000); active = well fitted inhibition curve with a large enough effect; inconclusive = small, poorly fitted or top-dose-only effect, or another doubt; inactive = no such curve, though single readings can be large or run the other way;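 note: the enzyme is Sfp with the accession as filed and its product quenches rhodamine fluorescence; potency is the fitted concentration of half-maximal effect; 0% = enzyme reaction without inhibitor and -100% = no enzyme wells; top concentration of the series not given in the record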
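After 15 min at room temperature with compound, 15 nM Sfp received 5 uM rhodamine-CoA plus 12.5 uM BHQ-2-ybbR (50 mM Hepes pH 7.6, 10 mM MgCl2). Rate came from the fluorescence difference over 30 min, ex 525/em 598 nm.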
gsp antag: gsp mutant antagonism. gsp-mutant cells, cAMP HTRF, 30 min; control for the full effect not named in the record. actives 0.4% (n = 340,000). Potency, µM (highest dose often 76.9 µM), without a hit: at the highest dose activity change, negative = inhibition, usual class: inhibitors. AID 624288; active = falling curve of any shape with a large fitted effect; inconclusive = falling curve, mostly with a smaller effect; inactive = flat or rising curve; cell line not stated here;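 note: intracellular cAMP measured with PDE inhibitor Ro 20-1724 present during compound exposure; potency is the fitted concentration of half-maximal effect; % is set by controls: 0 for no effect and ±100 for the full control effect; nearly all actives have a fitted effect of over 65% in size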
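Cells, 2000/well, grown 16–24 h in DMEM 10% FBS with 0.5 mg/ml G418, then compounds plus […] (300 uM addition stock), 30 min at 37C. cAMP read by HTRF (cAMP-d2 and anti-cAMP antibody-K in lysis buffer) after 30 min RT.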
Menin-MLL FL inh: menin-MLL binding inhibition, fluorescein peptide | Fluorescence polarization, fluorescein-MLL peptide displacement from menin | AID 1766 | 290,000 tested, under 10 active | FP activity change, % at 61.4 µM; inconclusive = falling polarisation curve, or a change in total fluorescence; inactive = total fluorescence flat and polarisation flat or rising; no compound was filed as active; the % refers to the polarisation; negative = inhibition;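 note: % of control where 0% means no effect; inhibitors lower the polarisation; unlabelled MLL peptide was the positive control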
D2 ag: activates the human D2 dopamine receptor; P14416; DiscoveRx PathHunter D2 beta-arrestin, luminescence, 90 min; 100% = 57 uM dopamine signal; activation, % (no concentration beside the values); actives 0.084% (n = 360,000); in the data active = activation above about 40%; inconclusive = about 15% to 40%; inactive = below about 15%; note: compound concentration not given in the record; the text of the record calls up to 30% inactive
Target sequence (P14416 whole entry, looked up): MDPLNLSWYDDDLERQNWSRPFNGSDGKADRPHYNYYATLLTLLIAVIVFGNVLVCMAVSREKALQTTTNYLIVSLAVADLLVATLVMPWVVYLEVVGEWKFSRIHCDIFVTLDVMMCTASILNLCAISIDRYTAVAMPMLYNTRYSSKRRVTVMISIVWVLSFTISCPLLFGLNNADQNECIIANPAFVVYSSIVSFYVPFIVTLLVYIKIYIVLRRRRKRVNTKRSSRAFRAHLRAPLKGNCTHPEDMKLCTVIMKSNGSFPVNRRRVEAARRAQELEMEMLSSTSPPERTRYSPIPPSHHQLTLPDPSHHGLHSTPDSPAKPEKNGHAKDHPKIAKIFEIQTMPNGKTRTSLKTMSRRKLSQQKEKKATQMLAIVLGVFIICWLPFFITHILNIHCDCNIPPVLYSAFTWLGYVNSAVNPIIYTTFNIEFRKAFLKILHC
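DiscoveRx PathHunter D2 beta-arrestin cells (2,100/well) attached overnight, then compound-stimulated 90 min at 37 C in HBSS/10 mM HEPES/0.1% Tween-20 buffer; beta-galactosidase complementation read by luminescence after 1 h at ambient temperature. Dopamine 57 uM final (EC100) as control.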
gsp ag: gsp mutant agonism; AID 624287; Potency, µM (series often up to 76.9 µM), inactives show at the highest dose activation (cAMP increase), hits mostly activators; gsp mutant cells, cAMP HTRF, 30 min; control for the full effect not named in the record; actives 0.13% (n = 340,000); active = well fitted activation curve with a large enough effect; inconclusive = small, poorly fitted or top-dose-only effect, or another doubt; inactive = no such curve, though single readings can be large or run the other way; cell line not stated here;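 note: phosphodiesterase inhibitor Ro 20-1724 added with compounds to block cAMP breakdown; potency is the fitted concentration of half-maximal effect; nearly all actives have a fitted effect of over 60% in size; about a fifth of the inactives were tested at one dose only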
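Cells in DMEM/10% FBS with G418 were pretreated with compounds in DMSO plus […] (300 uM stock) for 30 min at 37C. cAMP was measured by HTRF (cAMP-d2 plus anti-cAMP antibody-K) after 30 min at room temperature.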
ClpP mod: qHTS Assay for Activators of ClpP; purified B. subtilis ClpP, FRET peptide cleavage, 20 min; Potency, µM (titrated, usually from 57.5 µM), for inactives: at the highest dose activity change, negative = active; ATP-dependent Clp protease proteolytic subunit (Bacillus subtilis (strain 168)), P80244; AID 651965, 2013; actives 1.9% (n = 340,000); active = well fitted falling curve with a large enough effect; inconclusive = small, poorly fitted or top-dose-only effect; inactive = no such curve, though single readings can be large or run the other way; note: potency is the fitted concentration of half-maximal effect; the source files actives as falling curves though it sought activators and does not explain the sign; nearly all actives have a fitted effect of over 65% in size; many hits overshoot -100%
Target sequence (P80244 whole entry, looked up): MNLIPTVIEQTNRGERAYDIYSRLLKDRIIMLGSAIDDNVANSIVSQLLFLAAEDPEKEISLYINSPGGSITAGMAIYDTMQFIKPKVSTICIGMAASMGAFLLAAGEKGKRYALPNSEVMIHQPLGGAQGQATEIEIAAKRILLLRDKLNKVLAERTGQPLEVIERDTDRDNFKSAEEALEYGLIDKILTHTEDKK
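Purified B. subtilis ClpP, 10 microg/mL final in Tris/HCl pH8 with KCl, BSA, glycerol and Tween-20, cleaved an Abz/nitrotyrosine-quenched decapeptide. Fluorescence (ex 320, em 430) was read at 0 and 20 min at room temperature. Delta was normalized to 5.8 microM ADEP and DMSO/no-enzyme controls.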
The depositor's hits bear a star; ? = inconclusive; · = not tested or not shown; & = joins results of further samples; [ ] = remark or other dose. The list is partial. The share of hits here may be higher or lower than overall.

SMILES	PINK1 expr mod	Sfp PPTase inh	gsp antag	Menin-MLL FL inh	D2 ag	gsp ag	ClpP mod
CCOc1ccc(-n2c(O)c(N=Nc3ccc([N+](=O)[O-])cc3)c(=O)[nH]c2=O)cc1	2.7%	3%	-20%	0.0	-9.0	13%	0.4%
S=c1[nH]nc(-c2ccn[nH]2)n1-c1ccccc1Cl	0.5%	56µM*	-3%	-0.9	-1.5	0%[15.4 µM]	-5.3%
CC1CN(C)C(C)(C)CC1(O)c1ccccc1 (configuration not stated)	1.2%[38.3 µM]	2%	2%	0.2	-0.3	-4%	0.9%
CN1CCN(Cc2nnc3n2-c2ccc(Cl)cc2C(c2ccccc2)=NC3)CC1	-0.1%	-1%	1%	2.1	-3.8	1%	-0.3%
O=c1[nH]c(=S)n(-c2ccc(Cl)cc2)c(O)c1/C=N/N1CCOCC1	4.3%	-4%	0%	14	-2.3	-47%[inhibitor]	·
CCOC(=O)[C@@]12C(=O)C(=O)N[C@]1(c1ccccc1)C1OCCCC12 (some centres not stated)	1.6%	-8%	13%	-0.3	-1.4	-1%[15.4 µM]	0.6%
COC(=O)C1=C(c2cccc(OC)c2OC)C[C@@H]2CC[C@H]1N2C	-0.9%	·	9%	·	-5.1	-4%	0.4%
Cc1cc(OCC(=O)OC(C)(C)C)c2c3c(c(=O)oc2c1)CCC3	5.6%	-3%	19%	3.3	-0.8	18%	-6.0%
COc1ccccc1N=Cc1c(O)n(C)c(=O)n(C)c1=O	-1.4%	28%	18%	1.4	-3.4	-34%[inhibitor]	-2.5%
COc1ccc(CCNCc2ccncc2)cc1OC	-0.6%[38.3 µM]	45µM*	-4%	0.8	0.0	-3%	-0.1%
O=[N+]([O-])c1c(Cl)c(Cl)c(Cl)c(Cl)c1Cl	1.2%	·	-7%	·	-3.2	8%[15.4 µM]	·
O=C(O)[C@H]1C[C@@H]1[C@H](NP(=O)(c1ccccc1)c1ccccc1)c1ccccc1	-0.9%	5%&20%	6%	-1.4&-1.7	-2.3	·	-1.2%
N#Cc1c(Cl)c(Cl)c(Cl)c(C#N)c1Cl	12%	-9%	·	0.1	·	·	-2.9%
CN1C2CCC1/C(=C/c1ccccn1)C(=O)/C2=C\c1ccccn1	-2.4%	?	-8%	12	0.1	-7%[15.4 µM]	1.6%
Cc1cc(C)n2nc(SC(C)C(=O)N3CCC4(CC3)OCCO4)nc2n1 (configuration not stated)	-4.9%[38.3 µM]	7%	12%	-1.9	-1.5	?	-7.3%
CN1CCN(Cc2cc(C(C)(C)C)c(O)c(C(C)(C)C)c2)CC1	-0.6%	-18%	-8%	0.7	-4.0	0%	-0.7%
O=C(Cn1cnc2ccccc2c1=O)NCC(=O)N1CCC2(CC1)OCCO2	-0.8%	10%	12%	1.1	-0.6	20%	0.4%
CN(C)C(=O)Oc1ccc2c(c1)O/C(=C\c1cccc(Cl)c1)C2=O	5.0%	-14%	-1%	-1.3	0.5	-5%	·
CCN(CC1CCCN(CCc2cccc(OC)c2)C1)C(=O)c1ccc(COC)o1 (configuration not stated)	-0.3%	8%	-1%	·	-4.5	7%	-2.0%
CN(C)Cc1c[nH]c2cc([N+](=O)[O-])ccc12	-2.0%	·	7%	·	-0.2	0%	·
COC(=O)C1=C(c2cccc(OCc3ccccc3)c2)C[C@@H]2CC[C@H]1N2C(=O)NC1CCN(Cc2ccccc2)CC1	-1.0%	·	-4%	·	-0.5	·	-1.2%
COc1ccccc1NC(=O)COC(=O)c1cc(C)n(C2CC2)c1C	3.0%	·	-4%	·	-3.5	10%	·
CCN(CC)c1ccc([N+](=O)[O-])c2cccnc12	0.9%	-18%	?	12	-4.7	30%[15.4 µM]	·
Cc1ccc(OP(=O)(NC(C)c2ccccc2)Oc2ccc(C)cc2)cc1 (configuration not stated)	5.4%	-9%	-12%	1.3	1.1	24%	2.4%
C/C(=N/O)c1ccc2ccc3ccccc3c2c1	2.0%	·	-11%	·	0.9	11%	-16%
O=C(COc1ccc(Br)cc1)N1CCN(Cc2ccncc2)CC1	-3.0%	-7%	-3%	-0.2	-0.6	1%	-23%
O=C1CC(=O)N(c2ccccc2)C(=O)N1	1.7%	·	3%	·	-0.1	-6%	-3.5%
N#Cc1cccc(NC(=O)N2CCCC3(CCN(C(=O)Oc4ccccc4)CC3)C2)c1	0.8%	11%	·	1.1	·	·	·
COC(=O)C1=C(c2c(C)noc2C)C[C@@H]2CC[C@H]1N2C(=O)NCc1ccc2c(c1)OCO2	-0.2%	·	5%	·	-7.3	-41%	0.4%
C=CCn1c(O)c(C(C)=NCCCN(C)C)c(=O)[nH]c1=O	0.7%	15%	11%	-6.8	-5.5	8%[15.4 µM]	14µM*
CN(C)c1ccc(C2C3C=CC(C3)C2(C#N)C(=O)O)c(Br)c1 (configuration not stated)	2.5%	-5%	2%	-4.0	-6.4	16%[15.4 µM]	-1.0%
CCOc1ccc(NC(=O)C2C3c4ccccc4C(c4ccccc43)C2C(=O)O)cc1 (configuration not stated)	-0.1%	13%	-19%	-0.8	-5.2	-67%[inhibitor]	2.5%
OC1(c2cccnc2)CC2CCC(C1)N2Cc1nnnn1Cc1ccccc1 (configuration not stated)	1.6%	17%	13%	0.0	-0.7	-4%[15.4 µM]	0.7%
O=C(C1CCCCC1)N1CCC(c2nc3c(nnn3Cc3c(F)cccc3Cl)c(=O)[nH]2)CC1	-1.1%	-3%	9%	-2.8	0.4	?	0.5%
CC(Cc1ccc(O)cc1)NCC(O)c1ccc(O)c(O)c1 (configuration not stated)	2.6%	·	·	·	-0.9	1%	0.1%
Cn1c(O)c(/C=N/c2ccccn2)c(=O)n(C)c1=O	-0.7%[38.3 µM]	-23%	4%	1.2	·	23%	-5.0%
Cc1c(C(=O)Nc2ccccc2)c2cc(O)ccc2n1Cc1ccccc1	0.5%	0%	-14%	11	0.7	8%[15.4 µM]	1.0%
C[C@@H]1CN([C@@H](C)CO)C(=O)CCCn2nncc2CO[C@@H]1CN(C)C(=O)Oc1ccc2ccccc2c1	2.3%	·	·	·	-9.9	-4%	3.2%
COC(=O)c1ccccc1OP(=O)(c1cccc([N+](=O)[O-])c1)c1cccc([N+](=O)[O-])c1	-1.7%	6%	-3%	0.0	-4.0	6%[15.4 µM]	-1.1%
c1cc2c(cc1N1CCCCC1)CNCc1cnnn1-2	0.4%	·	·	·	-1.8	·	-1.7%
O=C(NC[P+](=O)O)OCc1ccccc1	0.6%	8%	3%	0.3	-8.8	-17%	0.6%
NC(=O)c1ccc(NC(=O)COC(=O)C2(c3ccccc3F)CCCC2)cc1	-0.2%	11%	-11%	-0.6	-5.1	-26%	1.2%
CCC1CCCCN1CC(=O)c1ccc(OC(F)F)cc1 (configuration not stated)	2.2%	?	13%	1.9	-11	44%[15.4 µM]	1.3%
COC(=O)C12OCC34C(CC5C(C)=C(O)C(=O)CC5(C)C3C(O)C1O)OC(=O)C(OC(=O)/C=C(\C)C(C)C)C24 (configuration not stated)	-7.2%	·	2%	·	-6.6	2%	63%
O=[N+]([O-])c1ccc(C[n+]2c(-c3ccccc3)cc(-c3ccccc3)cc2-c2ccccc2)cc1	0.6%	·	0%	·	-4.3	-50%[inhibitor]	4.6%
COC(=O)C1=C(c2ccc(F)cc2F)C[C@@H]2CC[C@H]1N2C(=O)N1CCC(O)CC1	-0.3%	·	6%	·	0.1	-5%	-3.4%
O=C1C2CCN(CC2)[C@@H]1Cc1ccc2ccccc2c1O	-1.9%	?	5%	2.2	1.1	-27%	1.9%
COc1cccc(N=Nc2c(O)[nH]c(=S)[nH]c2=O)c1	0.0%	-19%	?	19	-8.5	-25%	1.6%
COc1ccc(C2CC(c3cccs3)=NN2c2nc(C)c(C(C)=O)s2)cc1OC (configuration not stated)	?	40µM*	-24%	?	3.8	-42%[15.4 µM]	·
COc1cccc(C2(C#N)CCN(C)CC2)c1	-1.2%	5%	12%	-0.6	-5.3	-17%[15.4 µM]	·
Cc1cc(C)cc(NC2=NCCCS2)c1	2.8%	-3%	-7%	7.5	-1.0	3%	0.6%
CC(=O)N1CCN(c2ccc(N=Cc3c(O)n(-c4ccc(Cl)cc4)c(=O)[nH]c3=O)cc2)CC1	-2.4%	?	-14%	14	3.2	-1%	-1.1%
Cn1c(=O)c2nncnc2n(C)c1=O	2.4%	6%	21%	-2.1	-1.5	?	-1.7%
Cc1nc2c(C(=O)N3CCC4(CC3)OCCO4)cnn2c(C)c1Cc1cccc(Cl)c1	2.0%	-2%	-8%	2.9	4.1	12%	·
CCN1C(=O)NC(=O)/C(=C/c2cc(C)n(-c3sc(C)c(C)c3C#N)c2C)C1=O	8.5%	16µM*	21%	?	0.1	5%	-2.6%
CCOC(=O)c1ccc(-[n+]2c(-c3ccccc3)cc(-c3ccccc3)cc2-c2ccccc2)cc1	?	·	-7%	·	7.1	·	?
CC[C@H]1CN2CCC1C[C@@H]2[C@@H](O)c1ccnc2ccc(OC)cc12 (some centres not stated)	2.1%	·	-1%	·	8.9	·	4.7%
CCCCNC(=O)Nc1ccc(C(O)(C(=O)OCC)C(F)(F)F)cc1 (configuration not stated)	6.3%[38.3 µM]	?	2%	3.3	0.5	13%	-1.6%
C=C(COC(=O)CCC(=O)O)CC1CC(O)[C@]2(C)OC3CC4OC5C[C@]6(C)O[C@]7(C)CCC8OC9C[C@]%10(C)OC%11C(C)=CC(=O)OC%11CC%10OC9C[C@@H](C)C8OC7CC6O[C@]5(C)C/C=C\C4OC3CC2O1 (some centres not stated)	4.2%	-4%	-8%	-4.9	-2.4	·	0.0%
CN(C)c1cc(N)c2c(n1)CCC2 (tested in a mixture with another compound)	3.1%	2%	6%	4.5	0.1	-14%	-9.5%
